Assay outcomes: PubChem, ICCB-Longwood Screening Facility, Harvard Medical School
GIV Gai3 FP: GIV-Galpha-i interaction inhibition; P08753; Galpha-i3/FITC-GIV peptide fluorescence polarization, 90 min; stronger effect = lower value; scaled: aluminum fluoride 0%, vehicle 100%; percent of control (FP), % (no concentration beside the values); hit rate 0.42% among 210,000;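 active means replicate mean at 85% of control or lower, very high polarization wells dropped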;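 further: wells of about 15 µL received 100 nL stock; the first replicate is given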
Target sequence (P08753 whole entry, looked up): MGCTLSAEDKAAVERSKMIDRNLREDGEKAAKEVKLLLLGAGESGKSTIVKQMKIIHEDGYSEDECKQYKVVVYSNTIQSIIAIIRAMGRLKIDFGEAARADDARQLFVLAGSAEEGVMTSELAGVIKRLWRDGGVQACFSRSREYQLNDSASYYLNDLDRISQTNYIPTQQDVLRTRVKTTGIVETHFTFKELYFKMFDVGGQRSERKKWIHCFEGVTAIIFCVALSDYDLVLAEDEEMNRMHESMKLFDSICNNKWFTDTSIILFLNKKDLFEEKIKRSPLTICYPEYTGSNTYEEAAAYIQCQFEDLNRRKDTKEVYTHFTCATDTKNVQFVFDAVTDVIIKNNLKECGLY
Sa growth 42C: inhibitors of Staphylococcus aureus growth at 42 °C. relative growth, % (test concentration not listed). S. aureus RN4220 growth, OD600, 20 h; stronger effect = lower value. hit rate 0.53% among 170,000;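 active means growth at 42 °C up to 50% and 20 or more points under that at 30 °C, or under 10% at both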;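 further: 300 nL library stock went into each well; scaled to the means of positive and negative controls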
HCMV UL50-53 inh: disrupts HCMV UL50-UL53 complex binding. HTRF UL50-UL53 interaction, normalized percent inhibition. hit rate 0.15% among 190,000. AID 1918969. inhibition, % (no concentration beside the values);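 active means both replicates at 50% or more, plus weaker picks with an unusually low signal ratio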;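 further: stock transfer was 100 nL into about 20 µL; 0% = negative control wells and 100% = wells with untagged competitor protein; inactives centre near -12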
Sa growth 42C second temp: second read-out of Sa growth 42C, no call of its own (marks repeat the call); relative growth, %; measured here: growth at 30 °C;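 optical density after 20 h as mean of two plates; 100% = untreated growth and lower means inhibition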
The depositor's hits bear a star; / = not tested or not shown.

SMILES | GIV Gai3 FP | Sa growth 42C | Sa growth 42C second temp | HCMV UL50-53 inh
Cc1c(N=Nc2cnc(NC(=O)c3ccccc3)s2)c(=O)n(-c2ccccc2)n1C | / | 109 | 95 | -41
COC(=O)CCCn1c(-c2ccc(C)cc2)c(C)n2c3c(=O)n(C)c(=O)n(C)c3nc12 | 105 | 110 | 81 | -13
Cc1cc(Cl)ccc1NC(=O)CSc1nnc(/N=C/N(C)C)s1 | 104 | 92 | 90 | -30
CCN(C(=O)C1CCN(S(=O)(=O)c2ccc3c(c2)CCCN3C(=O)C2CCC2)CC1)c1cccc(C)c1 | 108 | 94 | 99 | /
Cc1ccc(-c2nc(N)sc2CC(=O)OCC(=O)N2CCOCC2)cc1 | / | 88 | 96 | -24
CCn1cc(CC(=O)O)c2ccccc21 | 103 | 105 | 80 | -12
Nc1nc2c(ccc3[nH]c(=O)c(=O)[nH]c32)s1 | 102 | 95 | 78 | -46
COC(=O)c1nn(-c2cccc(Cl)c2)cc(OC)c1=O | 108 | 91 | 86 | -52
COC(=O)[C@H](Cc1ccccc1)NC(=O)N1CCn2c1nc1ccccc12 | 101 | / | / | -16
COc1cc(OC)c(C2Nc3ccccc3-c3nnc(SCc4ccccc4)nc3O2)cc1OC (stereo not drawn) | 101 | 124 | 78 | -22
COc1ccc(NCc2nnc(SCC(=O)c3ccc(OC)cc3)n2C)cc1 | 108 | 125 | 85 | 12
Cc1cccc(C)c1OCc1nc2c3cnn(-c4ccccc4F)c3ncn2n1 | 107 | 104 | 101 | 9
CC(C)(C)C(=O)COC(=O)c1cc2ccccc2cc1O | / | 84 | 92 | -30
O=C(NCC(=O)N1CCOCC1)c1ccccc1 | 106 | 117 | 86 | /
N=c1c(Cl)cc(C(F)(F)F)cn1O | 100 | / | / | -4
CCOC(=O)C(CC)n1c(Br)nc2c1c(=O)[nH]c(=O)n2C (stereo not drawn) | 106 | 85 | 110 | 11
CC(=O)N1N=C(c2ccc(Br)cc2)CC1c1ccccc1F (stereo not drawn) | 97 | / | / | -23
Cc1oc2ncn(CCC(=O)NC(C)C)c(=O)c2c1C | 103 | / | / | -32
Cc1cc(C)c2c(n1)SCCN2C(=O)NCC(=O)NC(C)C | 104 | / | / | -8
COc1ccc(CCNC(=O)CSCc2n[nH]c(=O)[nH]2)cc1OC | 104 | 103 | 99 | -8

Some of these compounds in order of the GIV Gai3 FP value, smallest number first.
| canonical_smiles | GIV Gai3 FP | Sa growth 42C | Sa growth 42C second temp |
| --- | --- | --- | --- |
| CC(=O)N1N=C(c2ccc(Br)cc2)CC1c1ccccc1F (stereo not drawn) | 97 | / | / |
| N=c1c(Cl)cc(C(F)(F)F)cn1O | 100 | / | / |
| COC(=O)[C@H](Cc1ccccc1)NC(=O)N1CCn2c1nc1ccccc12 | 101 | / | / |
| CCOC(=O)C(CC)n1c(Br)nc2c1c(=O)[nH]c(=O)n2C (stereo not drawn) | 106 | 85 | 110 |
| CCN(C(=O)C1CCN(S(=O)(=O)c2ccc3c(c2)CCCN3C(=O)C2CCC2)CC1)c1cccc(C)c1 | 108 | 94 | 99 |

Remaining list, next part.
SMILES | GIV Gai3 FP | Sa growth 42C | Sa growth 42C second temp | HCMV UL50-53 inh
CCc1c(C)sc(NC(=O)c2cc(-c3cccc(Cl)c3)on2)c1C#N | 100 | 100 | 91 | -9
C=CCN1CC(c2nc3ccccc3[nH]2)CC1=O (stereo not drawn) | 106 | / | / | -13
CN(C)c1ccc(C2Nc3ccccc3S2)cc1 (stereo not drawn) | 111 | 100 | 94 | -6
O=C(c1cnc2ccc(F)cc2c1S(=O)(=O)c1ccc(Br)cc1)N1CCOCC1 | 104 | / | / | -25
CCOC(=O)C1CCN(C(=O)COC(=O)c2cccnc2Nc2ccccc2F)CC1 | / | 104 | 90 | -7
O=S(=O)(NCc1csc2ccc(Cl)cc12)c1ccccc1 | 106 | 114 | 92 | -9
N#Cc1cnc(SCc2ccc(Cl)cc2)nc1N | 99 | 93 | 75 | 25
N#Cc1sc(C(N)=O)c(-c2ccco2)c1-c1ccco1 | 105 | 93 | 112 | 5
O=C(NCCC(c1ccccc1)c1ccccc1)c1cccs1 | / | 103 | 88 | -3
CN(C)c1nc(NCc2ccc(Cl)cc2)c2cnn(C)c2n1 | 102 | / | / | -2
CC(=O)Nc1ccc(S(=O)(=O)N2CCN(Cc3ccccc3Cl)CC2)cc1 | 102 | 101 | 80 | -4
N#CC(C#N)Sc1nc2ccccc2[nH]1 | 99 | 86 | 77 | -8
CCOc1ccc(NC(=O)CSc2ncc3c(n2)-c2ccccc2N(C)S3(=O)=O)cc1 | 104 | 103 | 88 | /
CCOC(=O)C1CCN(c2ccccc2CN2CCN(Cc3ccccc3)CC2)CC1 | 104 | 118 | 94 | 4
Cc1ccc(N(Cc2ccco2)S(=O)c2ccc3ccccc3c2)cc1 (stereo not drawn) | / | 109 | 94 | -5
Cc1noc2c1C(c1cccnc1)C1=C(CC(c3ccccc3)CC1=O)N2 (stereo not drawn) | 106 | / | / | -16
Cc1nc2ncccc2c(=O)n1-c1cccc(NC(=O)c2ccc(F)cc2)c1 | 104 | / | / | -14
O=C1Nc2ccccc2S/C1=C/c1cccs1 | 104 | 71 | 79 | -14
Clc1ccc(Oc2cnccn2)c2ccccc12 | / | 95 | 97 | -24
N#Cc1cnc(SCc2cc(=O)n3ccccc3n2)nc1N | 115 | 110 | 90 | /

Shown with values under each structure: entries from further up.
The line under a structure holds: GIV Gai3 FP | Sa growth 42C | Sa growth 42C second temp | HCMV UL50-53 inh
> N#Cc1sc(C(N)=O)c(-c2ccco2)c1-c1ccco1
  105 | 93 | 112 | 5
> O=C(NCCC(c1ccccc1)c1ccccc1)c1cccs1
  / | 103 | 88 | -3

Carrying on.
SMILES | GIV Gai3 FP | Sa growth 42C | Sa growth 42C second temp | HCMV UL50-53 inh
COc1ccc2nc(N3CCCC3=O)sc2c1 | / | 147 | 81 | -18
CC(C)(CNC(=O)c1ccccc1OCCOc1ccccc1)N1CCOCC1 | / | 105 | 100 | 7
O=C(O)CC1S/C(=N/N=C/C=C/c2ccccc2)NC1=O (stereo not drawn) | 100 | 92 | 96 | -101
Cc1cc(=O)n2nc(N(C)CC(=O)NCc3cccc(Br)c3)sc2n1 | 105 | 102 | 81 | -22
COc1ccccc1N1CCN(c2ccc(=O)n(CC(=O)NCC3CCCO3)n2)CC1 (stereo not drawn) | 109 | / | / | -28
CCC(=O)Nc1ccccc1C(=O)N(C)C | 104 | 95 | 100 | 3
CC(=O)NCc1ccc(C(=O)COC(=O)/C=C/c2ccc(C)o2)o1 | / | 96 | 87 | -59
Cc1cnc(=O)[nH]c1SCc1ccc(C(F)(F)F)cc1 | 109 | 78 | 93 | 0
Oc1ccc2ccccc2c1C=NN1CCN(Cc2ccccc2)CC1 | 101 | 101 | 88 | /
Cc1nn2c(N3CCN(CCO)CC3)cc(C(C)(C)C)nc2c1-c1ccc(F)cc1 | 96 | / | / | -9
Cc1ccc(-n2cc3c(=O)[nH]cnc3n2)cc1 | 98 | / | / | -8
NC(=S)N/N=C/c1ccc(Sc2cccc3cccnc23)o1 | 109 | 75 | 58 | -24
O=S(=O)(c1ccc(F)cc1F)N1c2cccc3cccc(c23)S1(=O)=O | / | 105 | 87 | -43
CCc1ccc(Cn2c(CNS(=O)(=O)c3ccc(Cl)s3)nc3cccnc32)cc1 | 103 | 96 | 86 | /
C=CCn1c(=O)[nH]c2cc(C(=O)NCc3ccccc3)ccc2c1=O | 106 | 84 | 88 | -8
O=C1C2CSC(c3cccc(Cl)c3)N2C(=O)N1c1ccc(Br)cc1 (stereo not drawn) | 107 | / | / | -25
Cc1cc(C)n(CC(=O)NC2CCCCC2C)c(=O)c1C#N (stereo not drawn) | 100 | 92 | 88 | -19
Cc1c(C(=O)NCCCN2CCCCC2)sc2nc3n(c(=O)c12)CCCC3 | 109 | 79 | 86 | -24
CC1=CCC(C(=O)N(Cc2cccnc2)Cc2ccc(Cl)cc2Cl)C(C(=O)O)C1 (stereo not drawn) | 105 | 111 | 89 | -2
Cc1ccccc1C(=O)Nc1ccc(NC(=O)c2ccc(C(C)(C)C)cc2)cc1 | 99 | 99 | 81 | /

Four structures already listed, arranged by number of heavy atoms, ascending:
SMILES | GIV Gai3 FP | Sa growth 42C | Sa growth 42C second temp | HCMV UL50-53 inh
Cc1cnc(=O)[nH]c1SCc1ccc(C(F)(F)F)cc1 | 109 | 78 | 93 | 0
C=CCn1c(=O)[nH]c2cc(C(=O)NCc3ccccc3)ccc2c1=O | 106 | 84 | 88 | -8
Cc1c(C(=O)NCCCN2CCCCC2)sc2nc3n(c(=O)c12)CCCC3 | 109 | 79 | 86 | -24
CC(C)(CNC(=O)c1ccccc1OCCOc1ccccc1)N1CCOCC1 | / | 105 | 100 | 7

The list continues:
SMILES | GIV Gai3 FP | Sa growth 42C | Sa growth 42C second temp | HCMV UL50-53 inh
COc1ccc(OCC(=O)Nc2ccc3c(c2)OCO3)cc1 | 102 | 95 | 56 | -2
CSc1nnc(SCC(=O)c2sc3ccc(Cl)cc3c2C)s1 | 107 | 92 | 89 | 4
O=C(O)CSc1nnc(-c2ccccc2)n1-c1ccccc1 | 102 | 86 | 99 | 0
CCN1CCN(C(=O)c2sc3ncnc(N4CCN(c5ccc(OC)cc5)CC4)c3c2C)CC1 | 105 | / | / | -24
Cc1cc(C)cc(NC(=O)c2nn(C)c(C(F)(F)F)c2Cl)c1 | 101 | / | / | 0
Cc1ccc(Cn2nc(C)c(C(=O)N3CCC(n4c(=O)[nH]c5ccccc54)CC3)c2Cl)cc1 | / | 49 | 34 | -17
Cc1csc2ncc(C(=O)NC3CCCC3)c(=O)n12 | 105 | / | / | -22
S=C1NC2CCCCC2N1 (stereo not drawn) | / | 100 | 91 | -2
N#C/C(=C\C=C\c1ccco1)c1nc2c(s1)CCCC2 | 162 | 107 | 78 | -43
Cc1cc(=O)[nH]c(SCC(=O)N2CCC(Cc3ccccc3)CC2)c1C#N | / | 100 | 92 | -31
CN(C1CCCCC1)S(=O)(=O)c1ccc(F)c(F)c1 | / | 98 | 80 | -35
COc1ccc(Cl)cc1NC(=O)Cn1c(=O)n(CCCC(=O)NCCc2ccc(OC)c(OC)c2)c(=O)c2ccccc21 | 104 | 102 | 85 | -15
CCC(=O)N1CCc2cc(S(=O)(=O)CCC(=O)NCc3ccc(F)cc3)ccc21 | 98 | 116 | 90 | -17
COc1cc(C(=O)Nc2ccc(-c3cc(C(F)(F)F)nn3-c3ccccc3)cc2)cc(OC)c1OC | 102 | 107 | 95 | -3
O=C(N/C=C/c1cccs1)NCc1ccc(C(F)(F)F)cc1 | 106 | 4 | 16 | 9
Cc1ccc(-c2nc3cc(NC(=O)c4cc5ccccc5o4)ccc3o2)cc1 | 106 | 96 | 94 | -46
Cc1ccc(NC(=O)c2oc3ccc(S(=O)(=O)N4CCC5(CC4)OCCO5)cc3c2C)c(C)c1 | 105 | 129 | 89 | /
COc1ccc(-c2nn(-c3ccccc3)cc2C(=O)OCC(C)C)cc1 | 100 | 107 | 89 | /
CC(C)C(=O)Nc1nc2cc(NC(=O)c3[nH]nc4c3CCc3ccccc3-4)ccc2s1 | 102 | / | / | 0
COC(=O)C1=C(C)NC(=O)C1(NC(=O)c1ccc(Cl)cc1)C(F)(F)F (stereo not drawn) | 109 | 107 | 91 | /
CCc1ccc2ncc3c(-c4ccc(F)cc4)nn(CC(=O)NC4CCCCC4)c3c2c1 | 105 | 108 | 98 | /
Cc1ccc(N2CC(NC(=O)c3ccco3)CC2=O)cc1 (stereo not drawn) | 102 | 131 | 83 | /
CCOC(=O)CN1C(=O)C2(C(C#N)=C(N)Oc3n[nH]c(C)c32)c2ccccc21 (stereo not drawn) | 101 | 98 | 72 | /
COc1ccccc1CNC(=O)Cc1csc2nc(-c3ccc(Cl)cc3)cn12 | 113 | 105 | 71 | /
Cc1cc(C=C(C(=O)O)C(=O)O)c(C)n1Cc1ccco1 | / | 80 | 78 | -12
CS(=O)(=O)Nc1cc(C(=O)O)ccc1N1CCN(c2ccc(Cl)cc2)CC1 | 108 | / | / | -33
COc1ccc(-c2nc3sc(CCNC(=O)c4cc(OC)c(OC)c(OC)c4)c(C)n3n2)cc1 | 95 | 125 | 92 | /
COc1ccccc1Nc1nc(C)nc(N)c1S(=O)(=O)c1ccccc1 | 102 | 110 | 86 | -15
O=C(c1cccs1)N1CCCN(S(=O)(=O)c2cccc(Cl)c2Cl)CC1 | 101 | 109 | 85 | /
Cc1oc2ncn(C)c(=O)c2c1C(=O)N1CCCCC1 | 104 | 106 | 91 | -33
CCCCCn1c(C2CCCO2)nc2ccccc21 (stereo not drawn) | 104 | / | / | -9
CCOC(=O)c1c(CN(CC)CC)oc2ccc(OC)cc12 | / | 68 | 94 | 5
